# Bioassay records: PubChem BioAssay, several laboratories
# UCH37 inh: blocks the human deubiquitinase UCH37; purified proteasome/UCH37, Ub-AMC cleavage fluorescence; Q9Y5K5; 330,000 compounds, 0.33% hits; inhibition, % (no concentration beside the values);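 active means mean of two replicates above 20%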;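 further: 0% = compound-free wells with enzyme and 100% = wells lacking proteasome; stock transfer was 100 nL into about 20 µL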
#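 Assay system: Proteasome-bound UCH37. Buffer or medium: pH 7.4 Tris-HCl (50 mM) with ovalbumin, ATP-MgCl2, DTT. Incubation: 30 min preincubation with enzyme, 25 min cleavage at room temperature. Measured by: fluorescence, ex 355 nm, em 460 nm. Read-out basis: percent inhibition. Control set: wells without proteasome as full block, compound-free enzyme plus substrate as uninhibited.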
# HNF4A DNA FP: change in binding of human HNF4 alpha to DNA; activity change, % at 10 µM; HNF4a-FITC DNA binding, fluorescence polarization, 1 h; P41235; 360,000 compounds, 0.3% hits; AID 1224865; in the data active means activity change above about 30%, passing the limit was not always enough;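 further: controls were the assay level and a saturating level of protein; the project sought stronger binding though the title names inhibitors; some compounds called inactive have numbers as strong as hits; positive values seem to mean higher polarization but the record does not say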
# LANA-H2A inh: blocks KSHV LANA binding to histone H2A/H2B | Q9QR71 | cell-free LANA-H2A/H2B peptide, fluorescence polarization | inhibition, % (no concentration beside the values) | 320,000 compounds, 0.6% hits | AID 2629; in the data active means inhibition mostly above about 10%, no sharp cut-off; inactive means mostly below about 6.7%;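 further: stock transfer was 7.5 nL into about 10 µL; 0% = median of vehicle wells and 100% = median of positive control wells; one replicate is shown; the record names a cut of 25% in any replicate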
# B2AR ag: activates human beta-2 adrenergic receptor causing internalization; Am2.2-beta2AR cells, FAP receptor internalization, flow cytometry; reference of the scale not given here; response, % (no concentration beside the values); 340,000 compounds, 0.43% hits;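 active means response above a set limit, near 3 SD of response in nonfluorescent compounds, cut at about 42% in these data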;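 further: stock transfer was 100 nL into about 11 µL; a reference agonist was the positive control; negative values mostly stem from fluorescent compounds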
# Target sequence (P07550 whole entry, looked up): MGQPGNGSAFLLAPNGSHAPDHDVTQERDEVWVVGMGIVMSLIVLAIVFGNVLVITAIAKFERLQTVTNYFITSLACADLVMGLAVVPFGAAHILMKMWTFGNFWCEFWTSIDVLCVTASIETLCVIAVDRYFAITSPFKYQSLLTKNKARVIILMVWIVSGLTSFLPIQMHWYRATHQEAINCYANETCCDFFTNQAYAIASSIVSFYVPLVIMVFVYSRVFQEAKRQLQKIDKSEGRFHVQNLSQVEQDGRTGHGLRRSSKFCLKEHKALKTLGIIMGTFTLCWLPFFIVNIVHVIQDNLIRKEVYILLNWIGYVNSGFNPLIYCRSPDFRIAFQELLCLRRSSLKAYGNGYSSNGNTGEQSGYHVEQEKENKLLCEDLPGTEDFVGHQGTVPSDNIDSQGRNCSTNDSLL
# FGF22 binding: shifts melting point of recombinant human FGF22. AID 651658. Q9HCT0. 340,000 compounds, 1.5% hits. calls only at 9.99 µM. recombinant FGF22 thermal shift, SYPRO orange fluorescence; percent of sucrose octasulfate shift, DMSO zero;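 active means melting point raised past a set limit in the mean and every replicate; three in four hits are not shown here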
# Target sequence (Q9HCT0 whole entry, looked up): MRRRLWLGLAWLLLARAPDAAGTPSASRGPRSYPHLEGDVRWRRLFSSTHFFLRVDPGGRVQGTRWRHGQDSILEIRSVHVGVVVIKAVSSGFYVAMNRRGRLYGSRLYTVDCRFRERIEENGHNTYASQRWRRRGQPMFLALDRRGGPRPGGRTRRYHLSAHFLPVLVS
# Ecoli growth: inhibitors of Escherichia coli growth; AID 1053175; OD600, 23 h; active compounds read low; 330,000 compounds, 0.21% hits; OD600 absorbance (concentration not given with the values);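 active means OD600 absorbance below the run mean of sample wells minus 3.6 SD, in any replicate, cut at about 0.56 in these data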;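 further: stock transfer was 300 nL into about 60 µL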
# ALR H2O2 inh: human ALR oxidase inhibition via reduced H2O2; 290,000 compounds, 3.8% hits; inhibition, % (no concentration beside the values); purified ALR, DTT oxidation, H2O2 HRP-luminol luminescence; AID 485317;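 active means mean and each replicate at 75% or more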;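 further: stock transfer was 7.5 nL into about 7.5 µL; 0% = neutral wells and 100% = wells with inactivated enzyme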
# Target sequence (P55789 whole entry, looked up): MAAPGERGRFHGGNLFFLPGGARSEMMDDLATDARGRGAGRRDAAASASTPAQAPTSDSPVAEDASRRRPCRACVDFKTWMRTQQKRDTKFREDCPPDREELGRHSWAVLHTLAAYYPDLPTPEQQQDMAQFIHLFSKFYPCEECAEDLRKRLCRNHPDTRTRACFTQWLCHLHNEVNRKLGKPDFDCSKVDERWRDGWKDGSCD
# An asterisk follows results filed as active; i = inactive; nt = no result given. The list is partial, so the mix of outcomes need not match the whole.
mol	FGF22 binding	HNF4A DNA FP	LANA-H2A inh	UCH37 inh	ALR H2O2 inh	Ecoli growth	B2AR ag
Clc1ccc(Cn2ncc3c(NCCN4CCOCC4)ncnc32)cc1	nt	3.1	-2.8	4.1	-1.8	0.798	9.2
COc1ccc(S(=O)(=O)N2CCN(c3ccccc3)CC2)cc1OC	i	-2.9	nt	nt	nt	nt	-5.5
COc1ccc(CN2C(=O)c3ccccc3C2C(=O)NC2CCCC(C)C2C)c(OC)c1 (centres undefined)	i	-3.5	nt	4.9	nt	0.662	-11.7
COc1ccc2oc(=O)c(/C(C)=N/NC(=O)c3ccncc3)cc2c1	i	0.1	-8.0	nt	23.5	nt	-0.3
O=C(Cn1ncc(Cl)c(Cl)c1=O)N1CCN(Cc2ccccc2)CC1	i	-4.1	nt	5.6	nt	0.694	16.5
CSCCOC(=O)C1=C(C)Nc2ccc(C)cc2S1	nt	0.0	-0.5	1.9	8.8	0.733	-5.0
O=C(N=C1SC2CS(=O)(=O)CC2N1c1ccc(Cl)cc1Cl)C1CC1 (centres undefined)	i	-1.7	-0.2	2.3	-5.4	0.715	-1.1
CC[C@@]12C(=O)N(c3cccc(F)c3)C(=O)N1[C@H](c1ccc(Br)cc1)[C@@H]1C(=O)N(C(C)(C)C)C(=O)[C@@H]12	nt	2.6	1.5	1.4	-2.7	nt	-1.0
COc1cc(/C=C/C(=O)OCC(=O)Nc2ccc(S(N)(=O)=O)cc2)ccc1O	i	-1.2	-0.4	-8.2	nt	0.704	-8.3
COc1cc(NC(=S)N2CCN(C)CC2)cc(OC)c1	i	-1.9	9.7*	1.2	-37.5	0.678	3.9
O=C(O)c1cccc(CSc2ncn[nH]2)c1	i	-2.1	3.9	3.8	-2.7	0.712	-6.8
Cn1c(=O)c(C(=O)Nc2ncccn2)c(O)c2ccccc21	nt	2.6	0.7	-6.9	2.6	0.738	-20.0
COc1ccc(OC)c(C2/C(=C(\O)c3ccc4c(c3)OCCO4)C(=O)C(=O)N2CC2CCCO2)c1 (centres undefined)	i	0.5	3.6	11.4	-4.1	0.729	-0.8
O=C(CCCCN1CCCCC1)c1ccccc1	i	-3.1	2.3	1.6	-2.1	0.679	-0.4
CC(=O)c1sc(NC(=O)COc2ccc(Cl)cc2C)nc1C	i	3.6	3.1	0.9	nt	0.684	0.2
Cc1cccc(C)c1NC(=O)CSc1nc2c([nH]1)c(=O)n(C)c(=O)n2C	i	2.8	-3.2	0.5	-4.2	0.683	9.6
O=C(O)CC(NC(=O)COc1ccc(Cl)cc1Cl)C(=O)O (centres undefined)	nt	0.3	2.4	1.9	-9.4	0.698	-3.4
CCC(=O)Nc1ccc(C(=O)CN2CCC(C)CC2)cc1	nt	nt	-3.7	4.5	-7.6	0.704	nt
CCCNC(=O)NNC(=O)c1cc(-c2ccc3c(c2)OCO3)nc2ccccc12	i	-6.1	0.1	-4.3	17.8	0.691	-0.4
C[C@@H]1NC(=O)c2cc([N+](=O)[O-])cc(I)c2NCCCC[C@@H](C(N)=O)NC(=O)[C@H](CCC(=O)O)NC1=O	nt	-3.7	-0.2	3.0	-1.0	nt	-1.9
CCc1cc(SC#N)cc(CC)c1NC(=O)CCl	nt	-1.7	1.8	6.4	99.0*	0.641	30.0
CCCCOc1ccc(C(O)(CCN2CCOCC2)c2ccccc2)cc1 (centres undefined)	i	-1.4	-3.8	2.8	1.3	0.656	-0.3
Cn1cccc1Cc1nnc(SCC(=O)N2CCCCCC2)n1CCc1ccccc1	i	3.3	-10.2	2.0	5.4	0.742	-3.0
Cn1c(=O)c2c(nc(SCC(=O)NCc3ccc4c(c3)OCO4)n2Cc2ccc(Cl)cc2)n(C)c1=O	nt	-4.5	1.5	3.0	nt	0.723	5.5
COc1cccc(C(=O)Nc2cccc(S(=O)(=O)NC3=NCCC3)c2)c1	i	-3.3	-1.6	3.3	nt	0.668	-2.0
COc1ccc(-c2cc(C(=O)NCc3ccco3)c3ccccc3n2)c(OC)c1	i	-1.8	2.1	-51.0	17.5	0.73	-7.2
COc1cccc(CN2CCN(Cc3ccco3)CC2)c1	i	2.4	-2.1	1.6	1.3	0.69	0.7
CCOC(=O)c1sc(NC(=O)Nc2ccc(Cl)cc2)nc1C	nt	7.4	1.7	0.5	-11.4	0.69	5.9
CN1C(=O)CSc2ccc(NC(=O)N3CCN(c4ccccn4)CC3)cc21	i	3.1	nt	3.2	nt	0.649	6.0
C/C(=N\NC(=S)Nc1ccc(F)cc1)c1ccc2c(c1)OCCO2	i	2.1	5.4	nt	-2.2	nt	-13.8
COc1ccc(NC(=O)C(=S)N2CCCC2)cc1	i	1.2	-1.2	3.2	-3.6	0.72	-6.0
Cc1nn(CCC(=O)O)c(C)c1C	nt	-3.9	-4.0	6.1	-4.0	0.704	2.1
CCN(C(=O)CSc1nnc(-c2ccco2)n1C)c1c(N)n(Cc2ccccc2)c(=O)[nH]c1=O	i	-0.6	0.6	3.5	-2.1	0.717	-6.1
COc1ccc(NC(=O)CSc2nncn2N)c(OC)c1	i	2.2	-2.9	2.8	nt	0.711	3.0
COC(=O)CSc1nnc(CNC(=O)c2cccc(C)c2)n1-c1ccccc1OC	nt	-0.1	-1.3	1.0	4.4	0.63	2.0
Cc1ccc(S(=O)(=O)NCCC(=O)NCCCSc2ccccc2)cc1	i	4.4	1.7	2.0	-4.1	0.588	-1.2
CC(C)CN(CC(C)C)C(=O)CS(=O)(=O)Cc1ccccc1	nt	2.5	1.5	-2.2	0.4	0.676	-1.2
CCOC(=O)N1CCC(NC(=S)Nc2ccc3nc(N4CCN(CC)CC4)cc(C)c3c2)CC1	i	-23.0	8.0	-3.1	6.9	0.667	50.2*
Cc1ccc[n+](C(C(=S)NCc2ccco2)=C([O-])c2ccccc2Cl)c1	i	-2.2	nt	7.7	nt	0.696	0.4
COc1ccccc1C(=O)OCc1c(F)cccc1Cl	nt	-8.3	2.0	-7.6	nt	0.75	1.3
CC(CCc1ccccc1)NC(=O)CCc1cn(C)c2ccccc12 (centres undefined)	i	-1.4	-5.3	-1.4	-5.5	0.717	2.1
CC(C(=O)Nc1ccccn1)N1C(=O)C2C3C=CC(C3)C2C1=O (centres undefined)	nt	-0.1	4.0	1.2	30.6	0.719	5.2
Cc1[nH]c(C)c(S(=O)(=O)N2CCN(c3cccc(C(F)(F)F)c3)CC2)c1C(=O)N1CCCCC1	i	-0.2	2.6	3.6	-8.9	0.682	3.7
COc1cccc(NC(=O)Nc2ccc(C(C)(C)C)cc2)c1	i	-0.5	nt	6.8	nt	0.654	6.1
Cc1nnsc1-c1c(C(=O)O)c(C)nn1-c1ccc(OC(F)(F)F)cc1	i	-1.0	-2.2	4.0	-6.9	0.686	-2.1
CCc1ccc(NC(=O)CN(C)S(=O)(=O)c2ccc3[nH]c(=O)oc3c2)cc1	nt	-2.6	-3.8	1.7	2.0	0.711	3.1
CCCCC(CC)C(=O)Nc1cc(C(=O)NCCC)ccc1N1CCC2(CC1)CC(c1ccccc1)=NO2 (centres undefined)	i	4.7	-2.4	2.5	7.8	0.727	10.2
COC(=O)C1C(=O)C2=C(CC1C)Nc1ccccc1NC2c1ccc(C)s1 (centres undefined)	i	-1.5	-1.2	-22.0	43.6	0.674	1.2
O=C1CC(N2CCN(c3ccc(S(=O)(=O)N4CCOCC4)cc3)CC2)C(=O)N1Cc1ccccc1 (centres undefined)	nt	-0.6	-3.7	2.7	-6.8	0.727	-3.0
CC(=O)c1c(C)[nH]c(C(=O)Nc2cccc(S(=O)(=O)N3CCCC3)c2)c1C	i	-2.1	2.0	-0.4	-0.7	0.729	24.4

# Further compounds
mol	FGF22 binding	HNF4A DNA FP	LANA-H2A inh	UCH37 inh	ALR H2O2 inh	Ecoli growth	B2AR ag
Cc1cccc2nc(-c3ccco3)c(Nc3ccc4c(c3)OCO4)n12	i	0.3	-2.0	-41.5	99.5*	0.686	15.8
COc1cc2cc(CCCOC(=O)c3ccc4c(c3)OCO4)oc(=O)c2cc1OC	i	-5.9	-2.8	2.2	-0.3	0.783	-11.9
COC(=O)NCC(c1cccnc1)N1CCN(c2ccccc2OC)CC1 (centres undefined)	nt	4.1	0.7	-5.2	41.9	0.709	3.8
O=C(Cc1ccc(Br)cc1)N1CCN(c2ccccc2)CC1	nt	0.5	-0.7	2.2	97.6*	0.749	-8.8
CN(Cc1ccccc1)c1nc(N)c([N+](=O)[O-])c(Nc2cccc(F)c2)n1	nt	0.9	1.6	8.0	-18.6	0.713	-1.2
CCc1ccc(N(CC(=O)N2CCN(Cc3ccccc3)CC2)S(C)(=O)=O)cc1	i	0.9	1.0	1.6	-6.8	0.709	-7.9
CN1CCC(CO)(Cc2ccccc2)CC1	i	2.3	-2.4	3.1	-5.4	0.691	0.9
Cc1ccc(NC(=O)CSc2ncnc3ccccc23)cc1S(=O)(=O)N1CCOCC1	i	1.5	2.1	6.4	98.6*	0.679	-13.3
COc1ccc(C(=O)Nc2ncc3c(n2)CC(c2ccco2)CC3=O)cc1 (centres undefined)	nt	-1.0	4.8	-4.2	-11.9	0.771	-2.3
CCC1(C)Cc2c(C#N)c(N)n(-c3ccccc3)c(=S)c2CO1 (centres undefined)	i	-0.9	3.2	9.5	-4.4	0.67	-4.1
COc1ccccc1-n1c(SCC(=O)Nc2cccc3ccccc23)nc(O)cc1=O	nt	1.6	0.5	-0.4	97.9*	nt	3.7
COc1ccccc1CC(=O)NC1CCCCCC1	i	0.1	-1.4	5.1	1.1	0.641	-4.1
COCCn1c(SCC(=O)N2CCCC2)nnc1-c1ccoc1C	nt	-0.9	-4.9	1.8	-14.1	0.743	-4.4
CSc1nnc2n(-c3ccc(C)cc3)c(=O)c3c4c(sc3n12)COC(C(C)C)C4 (centres undefined)	i	0.7	3.1	5.7	nt	0.726	-0.9
Nc1ncnc(NCc2ccc(F)cc2)c1[N+](=O)[O-]	i	0.4	1.1	2.4	1.5	0.708	-2.5
CN(C(=O)COC(=O)C12CC3CC(CC(C3)C1)C2)c1c(N)n(Cc2ccccc2)c(=O)[nH]c1=O	i	7.2	nt	1.1	0.8	0.692	-3.0
O=C(CCl)N1CCCC1c1ccc2c(c1)OCCO2 (centres undefined)	i	-3.2	5.6	nt	nt	nt	10.1
CCO[C@H]1OC(C(=O)N2CCN(Cc3ccccc3)CC2)=C[C@@H](c2ccccc2)[C@@H]1CCCO	i	2.7	5.3	2.6	-24.2	nt	-2.9
S=C(Nc1ccccn1)NC1CCCCC1	i	0.5	1.5	5.2	-1.1	0.662	3.3
Cn1c(-c2ccccc2)cnc1SCC(=O)N1CCCc2ccccc21	i	-0.7	0.6	2.0	6.5	0.723	-8.2
O=C(CCSc1ccccn1)c1ccccc1	i	3.2	0.6	1.4	12.0	0.663	6.0
CC(C)CNS(=O)(=O)c1ccc(CCC(=O)NC2CCCCC2)cc1	i	2.6	0.9	3.6	-2.9	0.662	5.5
COc1cc(OC)cc(C(=O)Nc2ccccc2C(=O)N2CCCC2)c1	nt	-0.4	-11.5	4.1	0.0	0.71	-2.7
COC(=O)c1ccc(CN(c2ccccn2)S(=O)(=O)c2ccccc2)cc1	nt	1.1	-0.9	-15.9	-5.5	0.664	3.3
O=C(NCCN1CCCC1)c1ccc(CS(=O)(=O)c2c(Cl)cccc2Cl)o1	i	5.1	4.0	3.3	nt	0.762	-11.8
Cc1ccc(C(C(=O)NC2CCCCC2)N(C(=O)c2csnn2)C2CC2)cc1 (centres undefined)	i	1.0	-2.7	2.7	-3.0	0.704	-0.1
